Cruzain noTriton – qHTS Assay for Promiscuous and Specific Inhibitors of Cruzain (without detergent); Cruzipain (Trypanosoma cruzi), P25779; AID 1476, 2009; 200,000 tested, 2.3% active; Potency, µM, without a hit: max response, negative = inhibition, hits mostly inhibitors; purified cruzain, Z-FR-AMC fluorescence, no detergent;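 also: plate controls were enzyme without inhibitor for no effect and buffer without enzyme for full effect; nearly all actives have a fitted effect of over 40% in size; top concentration of the series not given in the record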
Target sequence (P25779 123-467 limits assumed): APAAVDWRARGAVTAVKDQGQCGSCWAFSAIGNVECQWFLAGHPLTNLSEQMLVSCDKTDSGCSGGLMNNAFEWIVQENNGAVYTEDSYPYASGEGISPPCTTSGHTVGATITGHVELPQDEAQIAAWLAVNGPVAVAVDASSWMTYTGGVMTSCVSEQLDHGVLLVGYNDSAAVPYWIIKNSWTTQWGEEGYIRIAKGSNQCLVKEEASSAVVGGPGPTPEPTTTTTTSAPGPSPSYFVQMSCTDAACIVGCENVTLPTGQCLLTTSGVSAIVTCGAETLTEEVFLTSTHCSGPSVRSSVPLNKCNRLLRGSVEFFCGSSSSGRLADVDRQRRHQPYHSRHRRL
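Purified cruzain at 1.5 nM, pre-incubated 15 min with compound at room temperature in 100 mM sodium acetate pH 5.5, 5 mM DTT, 0.00005% Triton X-100. Reaction started with 2 uM Z-FR-AMC; AMC fluorescence increase over 60 s gives rate.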
LASV entry inh – qHTS for Inhibitors of binding or entry into cells for Lassa Virus; Lassa virus pseudotype entry inhibition, cell reporter; control for the full effect not named in the record; Potency, µM (titrated, usually from 37.9 µM), for inactives: top-dose activity change, negative = inhibition, usual class: inhibitors; 300,000 tested, 1.2% active; AID 540256, 2011; active means well fitted inhibition curve with a large enough effect; inconclusive means small, poorly fitted or top-dose-only effect, or effect the other way; inactive means flat fitted curve, though single readings scatter; tested in HEK293 cells; also: % is scaled to controls: 0 for no effect and ±100 for the full control effect; nearly all actives have a fitted effect of over 50% in size; luciferase read-out
Cruzain inh Det – qHTS Assay for Promiscuous and Specific Inhibitors of Cruzain (with detergent) | Cruzipain (Trypanosoma cruzi), P25779 | purified cruzain, Z-FR-AMC fluorescence, 0.01% Triton | Potency, µM, inactives show max response, negative = inhibition, usual class: inhibitors | 200,000 tested, 0.43% active;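 also: plate controls were neutral wells for no effect and buffer without enzyme for full effect; nearly all actives have a fitted effect of over 40% in size; top concentration of the series not given in the record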
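Z-FR-AMC hydrolysis (2 uM substrate) by cruzain (1.5 nM) monitored kinetically at ex 360/em 450 nm after 15 min room-temperature compound exposure; 0.01% Triton X-100, pH 5.5, 5 mM DTT.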
RE007 growth inh – qHTS Assay for Inhibitors of the HIV-1 protein Vpr; S. pombe RE007 Vpr strain, BacTiter-Glo ATP luminescence, 24 h; control for the full effect not named in the record; Potency, µM (highest dose often 92.2 µM), for the others: top-dose activity change, negative = less growth; 360,000 tested, 0.21% active; active = well fitted falling curve with a large enough effect; inconclusive = small, poorly fitted or top-dose-only effect; inactive = no such curve, though single readings can be large or run the other way;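 also: % is scaled to controls: 0 for no effect and ±100 for the full control effect; nearly all actives have a fitted effect of over 50% in size; the assay follows cell death caused by Vpr and the record does not say whether a fall means rescue or toxicity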
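Fission yeast RE007 carrying one integrated HIV-1 vpr copy, seeded at OD 0.01 in PMG+AL medium with 23 nL pinned compound. Grown 24 h at 30 degrees; viability read by BacTiter-Glo luminescence after 5 min.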
SARS PLP yeast – qHTS of Yeast-based Assay for SARS-CoV PLP. 330,000 tested, 0.19% active. S. cerevisiae expressing SARS-CoV PLpro, growth rescue; control for the full effect not named in the record. Potency, µM (titrated, usually from 32.9 µM), for the others: top-dose activity, positive = growth rescue; active means well fitted rising curve with a large enough effect; inconclusive means small, poorly fitted or top-dose-only effect; inactive means no such curve, though single readings can be large or run the other way; also: 0% is about no effect; nearly all actives have a fitted effect of over 55% in size; growth read by luminescence after 48 h
Marburg entry inh – qHTS for inhibitors of binding or entry into cells for Marburg Virus; Marburg virus pseudotyped entry inhibition, cell reporter; control for the full effect not named in the record; about a third of the inactives were read at about 46 µM; Potency, µM (top dose mostly 37.8 µM), for the others: at the highest dose activity change, negative = inhibition, hits mostly inhibitors; 300,000 tested, 1.8% active; active = well fitted inhibition curve with a large enough effect; inconclusive = small, poorly fitted or top-dose-only effect, or effect the other way; inactive = flat fitted curve, though single readings scatter; tested in HEK293 cells; about a fifth of its hits are not listed in these tables; also: % is scaled to controls: 0 for no effect and ±100 for the full control effect; luciferase read-out
2A StopGo – High Throughput Screening for Foot and Mouth Disease Virus Antivirals; Potency, µM (series often up to 57.9 µM), without a hit: top-dose signal change, negative = less light; human cells with a luciferase reporter of 2A StopGo recoding; control for the full effect not named in the record; 410,000 tested, 1.2% active; AID 1159524, 2015; active = well fitted falling curve with a large enough effect; inconclusive = small, poorly fitted or top-dose-only effect; inactive = no such curve, though single readings can be large or run the other way; tested in HEK293T cells; also: % is scaled to controls: 0 for no effect and ±100 for the full control effect; nearly all actives have a fitted effect of over 45% in size; luciferase light after 4 h
NS1 function inh – qHTS Assay for Inhibitors of Influenza NS1 Protein Function | Potency, µM (series often up to 46.1 µM), for inactives: top-dose activity, positive = more growth | 270,000 tested, 0.4% active | S. cerevisiae slowed by influenza A NS1, growth recovery by OD600; active means well fitted rising curve with a large enough effect; inconclusive means small, poorly fitted or top-dose-only effect; inactive means no such curve, though single readings can be large or run the other way; also: nearly all actives have a fitted effect of over 50% in size
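Growth recovery, yeast-based: influenza A NS1 expressed in S. cerevisiae causes slow growth, and suppressors are detected by OD600. The parent strain without NS1 is used as positive control.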
Active calls of the source: *; ? = inconclusive; . = not tested or not shown; [ ] = remark or other dose. Unless noted, calls follow the shape of the dose curve; as a rule, active = well fitted curve in the direction sought with a large enough effect; inconclusive = small, poorly fitted or top-dose-only effect, or another doubt; inactive = no such curve, though single readings can be large; an effect the other way counts as inactive or inconclusive. Potency is read from the fitted curve at half-maximal effect.

SMILES	Cruzain noTriton	LASV entry inh	Cruzain inh Det	RE007 growth inh	SARS PLP yeast	Marburg entry inh	2A StopGo	NS1 function inh
Cc1ccc(C(=O)c2oc3ccccc3c2NC(=O)c2cc(=O)c3ccccc3o2)cc1	-3%	3%[46.1 µM]	-0.9%	.	.	30%[46.1 µM]	-6%	.
CCN1CCN(c2ncnc3c2cnn3-c2ccc(Cl)cc2)CC1	.	.	.	-8%	-2%	.	23%	3%
C/C(=N\Nc1cc(Cl)nc(C)n1)c1ccc(C)cc1	.	-14%[14.3 µM]	.	-10%	.	-11%	18%	.
O=C(Nc1ccsc1C(=O)NC1CCCCC1)c1ccccc1	-9%	-24%	-9.5%	2%	-3%	-6%	-7%	-1%
CCCN1C(=O)/C(=C/c2ccccc2OCc2ccc(C(=O)O)cc2)NC1=S	.	-11%[46.1 µM]	.	9%	4%	-14%[46.1 µM]	-8%	.
O=C1N=C(N2CCCCC2)S/C1=C\c1cn[nH]c1-c1ccccc1	-9%	5%	-7.5%	2%	6%	17%	-3%	15%
COc1ccc(C=Nc2cccnc2N)cc1	.	27%[46.1 µM]	.	2%	-2%	8%[46.1 µM]	1%	-16%
O=C(COC(=O)CNC(=O)C1CCCCC1)Nc1cccc(F)c1	.	1%	.	-14%	-2%	-2%	-10%	.
O=[N+]([O-])c1ccc(N=Cc2sc3ccccc3c2O)cc1	2%	?	-3.0%	-3%	-18%	?	31%[activator]	0%
COc1ccc(-n2c(=O)c(CCC(=O)N(C)Cc3cccs3)nc3ccccc32)cc1	.	-17%[46.1 µM]	.	9%	0%	?	?	.
CC(C)(C)NC(=O)Cn1c(=O)oc2ccc(Cl)cc21	-8%	.	0.7%	13%	-1%	.	-12%	7%
CCCCOc1ccc(-c2ncc(C(=O)O)c(C)n2)cc1	9%	?	-0.1%	-2%	1%	-11%[46.1 µM]	?	-41%
CCC1Sc2ccccc2N(CC(=O)NC2CCCCC2)C1=O (configuration not stated)	.	9%	.	-15%	-4%	-2%	-7%	.
CCn1ccnc1CNCc1cn(-c2cc(C)ccc2C)nc1-c1ccccc1	.	.	.	-8%	-1%	.	-17%	-3%
O=[N+]([O-])c1ccc(C2=Nn3c(Cn4nnc5ccccc54)nnc3SC2)cc1	.	12%	.	-10%	0%	-13%[46.1 µM]	-8%	8%
Cc1cc(C)cc(N2C(=O)CSC2c2ccccn2)c1 (configuration not stated)	.	25%	.	18%	1%	-2%[46.1 µM]	-4%	.
COc1ccc(Cl)cc1NC(=O)CSC1=NN2CCCC(=O)N=C2S1	.	7%[46.1 µM]	.	5%	-3%	?	?	-21%
Cc1ccc(C2CC(c3ccc(Cl)cc3)n3nc(N)nc3N2)cc1 (configuration not stated)	-20%	5%	-0.5%	7%	3%	7%	-8%	15%
CC1CN(c2ccc(Oc3ccccc3)cc2)c2nc3c(c(=O)n(CC(N)=O)c(=O)n3C)n2C1 (configuration not stated)	.	.	.	-15%	1%	7%	-20%	-4%
CCOc1cc2c(cc1OCC)-n1cccc1C(c1ccc(C(C)C)cc1)NC2 (configuration not stated)	.	?	.	-10%	-1%	?	?	2%
Cc1noc(C)c1C(=O)Nc1cc(S(=O)(=O)N2CCCCC2)ccc1N(C)C	.	27%[46.1 µM]	.	15%	-1%	1%	1%	.
CCOc1cccc2cc(C(=O)NCc3cccnc3)c(=O)oc12	-8%	9%	1.6%	2%	-2%	14%	39%[activator]	5%
Cc1ccc(NC(=O)C2CCCN(C(=O)Nc3ccc(F)cc3)C2)cc1 (configuration not stated)	.	-4%	.	-8%	-18%	-2%[46.1 µM]	18%	-13%
O=C(COC(=O)Cc1ccccc1F)Nc1ccc(Cl)cn1	.	-12%	.	-26%	1%	-2%[46.1 µM]	-9%	.
COc1ccc(C2Nc3ccccc3C(=O)N2NS(C)(=O)=O)cc1OC (configuration not stated)	.	2%[46.1 µM]	.	-3%	0%	5%[46.1 µM]	-2%	.

(further entries)
SMILES	Cruzain noTriton	LASV entry inh	Cruzain inh Det	RE007 growth inh	SARS PLP yeast	Marburg entry inh	2A StopGo	NS1 function inh
Cc1ccc(N(Cc2cc3ccc(C)cc3[nH]c2=O)S(=O)(=O)c2ccccc2)c(C)c1	.	-27%	.	0%	5%	21%	26%	24%
Cc1cc2ccccn2c1C(=O)c1cccc(S(=O)(=O)N2CCOCC2)c1	.	?	.	7%	1%	?	?	.
O=C(Nc1ncccc1O)c1ccc2c(c1)OCCO2	.	?	.	-9%	-1%	?	31%[activator]	.
COc1ccc(NC(=S)N(Cc2ccc(C)cc2)Cc2ccccn2)cc1	.	6%	.	-1%	-7%	18%[46.1 µM]	0%	.
CC(C)(C)N(Cc1ccccc1)C(=O)COC(=O)CCc1c[nH]c2ccccc12	20%	-9%	-8.6%	-1%	-6%	-1%	?	17%
CCOC(=O)C1=C(C(F)(F)F)Nc2ncnn2C1c1ccc(OC)cc1OC (configuration not stated)	3%	5%	-1.3%	13%	18%	15%	-13%	13%
CCN(CC)C(=S)Nc1cc(C(=O)OC)ccc1C(=O)OC	-4%	?	0.5%	-10%	12%	1%	-7%	-11%
Cn1ccnc1C(OC(=O)c1ccc(Cl)cc1)C(F)(F)F (configuration not stated)	.	.	.	-3%	-2%	.	-5%	1%
CCOC(=O)CSC1=Nc2ccccc2C2=NC(CC(=O)NCc3cccs3)C(=O)N12 (configuration not stated)	-5%	16%	-4.2%	39%	4%	?	8%	?
Cc1ccc(-n2nnnc2CNC(=O)c2ccc([N+](=O)[O-])o2)cc1C	.	?	.	-14%	-10%	?	-18%	.
COc1ccc(NC(=O)CSc2ncccc2C(=O)O)cc1OC	-3%	-23%[46.1 µM]	-0.5%	.	.	.	4%	.
CC(CCc1ccccc1)NC(=O)COC(=O)c1cc(NS(=O)(=O)c2ccc(Cl)c([N+](=O)[O-])c2)ccc1O (configuration not stated)	?	-12%	-6.3%	51%	-4%	2.5µM*	-10%	-7%
CCCNC(=O)COC(=O)c1ccc(-c2ccccc2)cc1	.	15%	.	-20%	2%	-18%[46.1 µM]	-13%	.
O=C1OC(Nc2nccs2)c2ccccc21 (configuration not stated)	5%	7%	8.4%	-3%	-4%	15%[46.1 µM]	-30%	7%
COc1ccc(CCNC(=O)c2ccc([N+](=O)[O-])cc2)cc1	.	-7%[46.1 µM]	.	-15%	-2%	-7%[46.1 µM]	2%	-2%
Cc1ccc(/C=C(/NC(=O)c2ccccc2)C(=O)NC(Cc2c[nH]c3ccccc23)C(=O)O)cc1 (configuration not stated)	.	4%[46.1 µM]	.	1%	0%	-1%[46.1 µM]	8%	2%
CCOC(=O)CCCNC(=O)c1cncc(Br)c1	-2%	10%	6.2%	9%	-1%	?	26%	1%
COC(=O)N/N=C/c1ccc(-c2ccccc2Cl)o1	.	?	.	-11%	-7%	-12%	27%	-47%
Cc1nn(Cc2c(Cl)cccc2Cl)c(C)c1NC(=O)c1cn(-c2ccccc2)nc1-c1ccccc1	-18%	?	4.5%	13%	13%	?	?	?
O=C1S/C(=C\c2ccccc2)C(=O)N1CC(O)Cn1c2ccccc2c2ccccc21 (configuration not stated)	32µM*	8%	-3.8%	12%	-7%	15%	-18%	2%
NC(=O)c1c(NC(=O)c2ccco2)sc2c1CCC2	-2%	?	-2.3%	-19%	-6%	?	.	-42%
CCN(CC)C(=O)CN(Cc1ccccc1)S(=O)(=O)c1ccc(F)cc1	0%	-19%	0.0%	-6%	-6%	12%	20%	-13%
Cc1cc2c(cc(C(=O)OC(C)C(=O)NCc3ccc(F)cc3)n2C)o1 (configuration not stated)	.	2%	.	4%	.	-33%[46.1 µM]	-15%	.
COCCCNC(=O)CCn1nc(-c2ccc(Cl)cc2)ccc1=O	.	.	.	-3%	-1%	.	-12%	4%
COc1ccc(CCNc2nc(-c3ccncc3)cs2)cc1OC	.	.	.	-8%	-5%	.	?	-33%

Later entries
SMILES	Cruzain noTriton	LASV entry inh	Cruzain inh Det	RE007 growth inh	SARS PLP yeast	Marburg entry inh	2A StopGo	NS1 function inh
N#Cc1nc(-c2cccc3ccccc23)oc1N1CCCCC1	?	11%	-3.4%	1%	8%	?	28%	3%
CC(=O)c1ccc(-c2c(C)cc3oc(=O)cc(-c4ccccc4)c3c2C)cc1	?	.	0.0%	-13%	7%	.	-10%	.
Cn1c(=O)c2c(ncn2CC(=O)OCCCC(=O)c2ccc(Br)cc2)n(C)c1=O	.	-19%[46.1 µM]	.	-5%	-13%	?	?	.
CN(C)S(=O)(=O)c1cccc(COC(=O)Cc2c(F)cccc2Cl)c1	.	?	.	0%	-10%	-26%[46.1 µM]	-17%	-25%
O=[N+]([O-])c1ccc(-c2cn(-c3ccc(Cl)cc3)c(=S)[nH]2)cc1	?	?	-0.6%	2%	12%	14%	-5%	12%
O=c1sc2ccccc2c(N2CCCCC2)c1[N+](=O)[O-]	.	3%[46.1 µM]	.	-19%	0%	14%[46.1 µM]	28%	6%
COC(=O)c1c(NC(=O)C(=O)N2CCCC2)sc2c1CC(C)(C)OC2	.	13%[46.1 µM]	.	8%	1%	12%[46.1 µM]	-11%	6%
Cc1ccc(NC(=O)CSc2nnc(Cn3c(=O)sc4ccccc43)n2C)cc1Cl	0%	.	5.8%	-6%	18%	.	-12%	-7%
O=C(c1ccccc1)N1CCN2C(=O)c3ccccc3C12c1ccc(Cl)cc1 (configuration not stated)	-5%	-12%	-5.9%	-12%	-13%	?	-27%	18%
CSc1nc2c(cnn2-c2ccccc2)c(=O)n1N	.	.	.	7%	-1%	.	55%[activator]	4%
N#Cc1ccsc1NC(=O)c1ccccn1	2%	14%	1.7%	-13%	-4%	8%	32%	-33%

Some entries already given, limited to 2A StopGo:
| Structure | 2A StopGo |
| --- | --- |
| C/C(=N\Nc1cc(Cl)nc(C)n1)c1ccc(C)cc1 | 18% |
| O=C(Nc1ccsc1C(=O)NC1CCCCC1)c1ccccc1 | -7% |
